Compound activity: PubChem, National Center for Advancing Translational Sciences (NCATS)
VDR inh = inhibitors of human vitamin D receptor | P11473 | VDR-SRC2-3 peptide fluorescence polarization, 2 h | Potency, µM, inactives show max response, negative = inhibition, usual class: inhibitors | 400,000 compounds, 0.93% hits | AID 504847; active means well fitted inhibition curve with a large enough effect; inconclusive means small, poorly fitted or top-dose-only effect, or another doubt; inactive means no such curve, though single readings can be large or run the other way; further: series mostly up to about 120 µM
Target sequence (P11473 whole entry, looked up): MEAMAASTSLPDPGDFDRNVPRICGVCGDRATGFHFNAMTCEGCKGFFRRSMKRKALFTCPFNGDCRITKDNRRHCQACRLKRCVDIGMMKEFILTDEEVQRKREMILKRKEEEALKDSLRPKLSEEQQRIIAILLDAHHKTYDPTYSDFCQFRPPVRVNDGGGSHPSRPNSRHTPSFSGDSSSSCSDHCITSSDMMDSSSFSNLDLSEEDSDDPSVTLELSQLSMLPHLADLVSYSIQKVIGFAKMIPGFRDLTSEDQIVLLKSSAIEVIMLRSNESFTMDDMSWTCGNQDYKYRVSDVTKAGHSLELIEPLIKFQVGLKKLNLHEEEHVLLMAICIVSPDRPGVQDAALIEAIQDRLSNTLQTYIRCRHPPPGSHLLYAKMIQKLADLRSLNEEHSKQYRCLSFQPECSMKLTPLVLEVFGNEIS
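Compounds are added to VDR with labelled SRC2-3 coactivator peptide and held 2 h at room temperature. Inhibition of the VDR–peptide interaction is then read as a change in fluorescence polarization.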
* = called active by the depositor; ? = inconclusive; & = joins results of further samples; ! = not confirmed by another sample. On the % scale 0 is the no-effect control and ±100 the full control effect; potency means the concentration at half of the fitted maximal effect. The list is partial, so the mix of outcomes need not match the whole.

SMILES | VDR inh
CCC(C)NC(=O)c1sc2ncccc2c1-n1c(C)ccc1C (stereo not drawn) | 0.8%
COc1ccc(/C=N/NC(=O)c2cccnc2)cc1COc1ccc([N+](=O)[O-])cc1 | -8.2%
O=C1CCN(CCc2ccccc2)CCN1CCOc1ccccc1 | -0.7%
O=C(O)Cc1c[nH]c2ccc(O)cc12 | 50.1µM*!
CC(C(=O)Nc1ccc(C(=O)O)c(O)c1)N1C(=O)/C(=C\c2ccco2)SC1=S (stereo not drawn) | -9.8%
Cc1onc(-c2ccccc2)c1C(=O)NNC(=O)c1ccccc1O | -0.6%
COc1cc(OC)cc(-c2n[nH]c(=S)n2-c2cc(OC)ccc2OC)c1 | -22.6%
CN1CCN(C(CNC(=O)C(=O)Nc2ccc(Cl)cc2)c2cccnc2)CC1 (stereo not drawn) | 5.5%
COc1ccc(CC(=O)N2CCc3cc(OC)c(OC)cc3C2C)c(OC)c1 (stereo not drawn) | 3.5%
Cc1c(CCC(=O)O)c(=O)oc2cc(OCc3ccc(Br)cc3)ccc12 | 0.2%

Some of the entries above, reformatted.
CC(C(=O)Nc1ccc(C(=O)O)c(O)c1)N1C(=O)/C(=C\c2ccco2)SC1=S (stereo not drawn)
- VDR inh: -9.8%

Cc1onc(-c2ccccc2)c1C(=O)NNC(=O)c1ccccc1O
- VDR inh: -0.6%

COc1cc(OC)cc(-c2n[nH]c(=S)n2-c2cc(OC)ccc2OC)c1
- VDR inh: -22.6%

Continued.
SMILES | VDR inh
Cn1c(=O)c2c(nc(NCC3CCCO3)n2C)n(C)c1=O (stereo not drawn) | -15.4%
O=C(CCC(=O)N(c1cccc(F)c1)C(C(=O)NC1CCCC1)c1ccncc1)Nc1cccnc1 (stereo not drawn) | -1.4%
O=C1NC(=Nc2ccccc2Cl)S/C1=C\c1cccc([N+](=O)[O-])c1O | 79.4µM*
CCOC(=O)C1=NOC2C(=O)N(c3ccc(Cl)cc3Cl)C(=O)C12 (stereo not drawn) | -4.0%
Cc1cccc(CC2CC(=O)N(c3nc4ccccc4s3)C2=O)c1 (stereo not drawn) | 13.9%
CCCCOc1ccc(C2c3c(oc4ccccc4c3=O)C(=O)N2c2nc(C)c(C(=O)OCC)s2)cc1OC (stereo not drawn) | -9.5%
CC(=O)/C=C/c1ccc2ccccc2n1 | ?
CC(=O)N1CCN=C1SCc1ccccc1F | -5.3%
O=C(Nc1ccncc1)c1cc(S(=O)(=O)N2CCOCC2)ccc1Cl | -20.7%
CCOC(=O)c1ccsc1NC(=O)c1ccco1 | -17.5%
Cc1[nH]c(=O)[nH]c(=O)c1S(=O)(=O)Nc1ccc(F)cc1Cl | -22.2%
CCOc1ccc2oc(C(=O)N3CC(C)OC(C)C3)c(C)c2c1 (stereo not drawn) | -2.4%
Cc1nn(C)c(C)c1NC(=O)c1ccccc1NC(=O)Nc1ccccc1 | -11.2%
CN(C)S(=O)(=O)N1CCC(Oc2cccc(C(=O)NC3CCCCCC3)c2)CC1 | -13.5%
O=C(NCCCCCCOC1=NS(=O)(=O)c2ccccc21)C(=O)Nc1ccccc1 | 1.4%
CC(=O)Nc1ccc(C(=O)OC2CCCCC2=O)cc1 (stereo not drawn) | ?
C=C(C)[C@@H]1CC=C(CN2CCN(Cc3ccccc3)CC2)CC1 | 5.4%
Cn1cc(Br)c(C(=O)Nc2c(F)c(F)c(F)c(F)c2F)n1 | -7.9%
Cc1cc(C)c(OCC(=O)N/N=C/c2ccco2)c(C)c1 | 4.6%
COc1ccc2[nH]c3c(c2c1)CCN1C(=O)C(CC(=O)NCCC2=CCCCC2)C[C@H](C(=O)N2CCCCC2)[C@@]31CCc1ccccc1 (stereo partly drawn) | -18.7%
CCN(C)Cc1c(C(=O)N2CCc3ccccc3C2)nc2ccc(Cl)cn12 | 12.9%
Cc1ccc(CNS(=O)(=O)c2cn(C)c(=O)n(C)c2=O)cc1 | -9.7%
Oc1ccccc1C(=S)N1CCCC1 | ?
COc1ccc(CNC(=O)C2CCN(S(=O)(=O)c3ccc4c(c3)N(C(C)=O)CCO4)CC2)cc1 | -9.3%
COC(=O)C1=C(N)Oc2c(oc(CO)cc2=O)C1c1ccccc1F (stereo not drawn) | -5.2%
c1cc2c(c(NCc3ccncc3)c1)CCCC2 | -0.2%
COc1ccc(S(=O)(=O)NCc2ccccn2)cc1NC(=O)c1ccc(Cl)cc1 | -4.7%
Oc1ccc2ccc(Cl)cc2c1 | 8.5%
COc1ccc(C)cc1NC(=O)CSc1nnc(COc2ccccc2)n1Cc1ccco1 | 8.7%
C=CCn1c(SCC(=O)c2cccs2)nc2sc(C)c(C)c2c1=O | -6.1%
N=C1C(c2nc3ccccc3c(=O)[nH]2)=C(O)CN1CCc1ccccc1 | 2.4%
COc1cccc(CNC(=O)c2ccc(C)c(S(=O)(=O)N3CCOCC3)c2)c1 | 3.9%
C=CCOC(=O)C1=C(C)NC(C)=C(C(=O)OCC=C)C1c1ccco1 | 8.2%
CCOC(=O)c1sc(NC(=O)c2ccccc2OC)nc1C | -0.8%
C/C(=N\N=C1\NC(=O)C(Cc2ccccc2)S1)c1ccccc1 (stereo not drawn) | 6.7%
Cc1ccc(NC(=O)COCc2cc(-c3cccs3)on2)cc1Cl | 10.5%
CC(C)NC(=O)N1CCC2(CC1)CCN(S(C)(=O)=O)CC2 | -0.5%
Cc1cc(C)c2cc3c(N)c(C(=O)N4CCOCC4)sc3nc2c1 | ?
Cc1nnc(SCC(=O)Nc2cc(S(=O)(=O)N3CCOCC3)ccc2C)s1 | 3.5%
Cc1ccccc1-c1nnc(SCC(=O)Nc2c(C)n(C)n(-c3ccccc3)c2=O)o1 | 2.3%
Cc1ccc(S(=O)(=O)c2c(C)cc(-c3ccccc3)[nH]c2=O)cc1 | 23.3%
CC(C)COc1ccc(C(=O)N/N=C/c2ccoc2)cc1 | -26.1%
Cc1cc(=O)n(C)c(=O)n1CCCCCCN1CCCC1 | -2.4%
CN(C(=O)c1cccc(NC(=O)Cc2ccc(NC(=O)C3CCCN(C(=O)CCc4ccccc4)C3)cc2)c1)C1CCCCC1 (stereo not drawn) | -3.7%
O=C(CCN1C(=O)C2(OCCO2)c2ccccc21)c1ccccc1 | -4.1%
Cc1c(/C=C(\C#N)C(=O)NCc2ccccc2)cc(C#N)n1C | -1.1%
O=[N+]([O-])c1cc(Cl)ccc1N1CCCCC1 | -5.0%
O=C(Nc1ccc(OC(F)(F)F)cc1)c1cc(-c2ccc(Cl)cc2)on1 | -11.6%
Cc1ccc(Cn2ccn(Cc3cccc(C(F)(F)F)c3)c(=O)c2=O)cc1 | -8.0%
Cc1cc(C)cc(Nc2cc(C(=O)NCCCN(C)C3CCCCC3)c3ccccc3n2)c1 | -8.6%

Continuation:
SMILES | VDR inh
Cc1nnc(SCc2ccccn2)n(N)c1=O | 7.3%
Cn1cccc1C(C#N)c1cccc(F)c1C#N (stereo not drawn) | 3.1%
Cc1ccc(C(=O)NNC(=O)C2CCN(Cc3ccccc3)CC2)cc1 | 3.4%
CSc1ccccc1NC(=O)Cn1nnc(-c2ccc(S(C)(=O)=O)cc2)n1 | 7.7%
COc1ccc(-n2c(SC3CCOC3=O)nc3ccccc3c2=O)cc1OC (stereo not drawn) | -1.1%
CC(CN1CCCC1)OC(=O)c1ccc(Cl)cc1Cl (stereo not drawn) | -4.9%
Cc1ccsc1/C=C1/SC(=O)N(CC(=O)N2CCCC2)C1=O | 9.4%
CCOC(=O)C1CCN(C(=O)c2cccnc2Cl)CC1 | 7.6%
O=C(Nc1ccc(Cl)cc1C(=O)NCC1CCCO1)c1ccc(Cl)cc1Cl (stereo not drawn) | -4.7%
CN(CC(=O)Nc1ccc(S(=O)(=O)N2CCCC2)cc1)CC(=O)Nc1cccc(F)c1 | -2.7%
CCC/C(=N\NC(=O)c1ccc(OC)c(OC)c1)c1ccccc1 | -25.8%
O=C(COc1ccc(Br)cc1CO)N1CCCc2ccccc21 | -26.8%
COc1cccc(-c2cc(=O)[nH][nH]2)c1 | 6.4%
CN(C)S(=O)(=O)N1CCN(c2ccccc2Cl)CC1 | 17.1%
CCn1c(-c2ccc3ncccc3c2)n[nH]c1=S | 9.0%
COc1ccc(C(F)(F)F)cc1N/C=C\c1nnnn1-c1ccc(C)cc1 | 8.4%
Cc1ccccc1SCC(=O)Nc1cc(S(=O)(=O)N2CCOCC2)ccc1N1CCOCC1 | -10.7%
COc1cccc(/C=N/NC(=O)c2cc(C34CC5CC(CC(C5)C3)C4)[nH]n2)c1 | 17.2%
Cc1ccc2ccc3cc(C(=O)N4CCN(c5ccccc5F)CC4)nc3c2[nH]1 | 7.6%
COc1cccc(NC(=S)NCc2ccc3c(c2)cc(C)n3C)c1 | 8.4%
COC(=O)c1sccc1NC(=O)c1cccc(OC)c1 | ?
Cc1ccc(-c2nnc(-c3ccccc3S(=O)(=O)Cc3ccc(Cl)cc3)o2)cc1 | 12.5%
CCOC(=O)C(Cc1ccccc1)C(=O)c1ccco1 (stereo not drawn) | 3.0%
CC(C)c1ccc(C2OCC(C)([N+](=O)[O-])CO2)cc1 (stereo not drawn) | -7.3%
COc1ccccc1N(C)S(=O)(=O)c1ccc(C(=O)N(C)Cc2ccc(Cl)s2)cc1 | -5.5%
CCc1ccc2nc(SCC(=O)NCC3CCCO3)c(C#N)cc2c1 (stereo not drawn) | -2.3%
COc1ccc(CC(=O)Nc2c(C(=O)N3CCN(c4ccccc4)CC3)oc3ccccc23)cc1OC | 4.3%&16.9%
Cc1ccc(-n2cc(CN3CCCN(C=O)CC3)c(-c3ccc(F)cc3)n2)cc1 | 12.4%
Cc1ccc(Cl)cc1-n1c(CCC(=O)O)ccc1-c1cccs1 | -28.3%
O=C(C1=C[C@@H](c2ccccc2)C[C@@H](OCc2ccc(CO)cc2)O1)N1CCCCCCC1 | -12.4%

In the list so far, these have a CF3 group.
SMILES | VDR inh
O=C(Nc1ccc(OC(F)(F)F)cc1)c1cc(-c2ccc(Cl)cc2)on1 | -11.6%
Cc1ccc(Cn2ccn(Cc3cccc(C(F)(F)F)c3)c(=O)c2=O)cc1 | -8.0%
COc1ccc(C(F)(F)F)cc1N/C=C\c1nnnn1-c1ccc(C)cc1 | 8.4%

Next section
SMILES | VDR inh
O=C(N/N=C/c1ccccc1O)c1cc[n+]([O-])cc1 | 2.2%
CN1CCN(Cc2nc3c(c(=O)[nH]c(=O)n3C)n2Cc2c(F)cccc2Cl)CC1 | -18.8%
CSc1cccc(NS(=O)(=O)c2cc(Br)cnc2N)c1 | 11.8%
COc1ccc([C@@H](C)NC(=O)CCc2nnc(-c3cc(C)on3)o2)cc1 | 7.1%
COc1ccccc1NC(=S)N(c1ccccc1)C(C)C | -4.1%
Cc1ccc(OCCSc2nc(C)c(Cc3ccccc3)c(=O)[nH]2)cc1 | -8.8%
O=C(Nc1cccc(NC(=O)c2cccc(F)c2)c1)c1ccccc1 | 5.7%
CCOC(=O)Cc1csc(NC(=O)c2ccc(C)c(S(=O)(=O)N3CCOCC3)c2)n1 | -2.6%
CCSc1ccc([C@@H]2[C@@H]3C(=O)N(CC)C(=O)[C@@H]3[C@]3(C(=O)OC)CCCCN23)cc1OC | -28.8%
COc1ccc(CC(=O)N/N=C/c2c(C)n(C)c3ccccc23)cc1OC | -4.0%
CC1=C(C(=O)Nc2ccccc2)C(c2ccc(C)o2)n2c(s/c(=C/c3ccccc3)c2=O)=N1 (stereo not drawn) | 4.0%
CCCC(=O)Nc1nc2ccc(S(N)(=O)=O)cc2s1 | -13.1%
CCc1cc(=O)[nH]c(SCCC(F)=C(F)F)n1 | -12.8%
CCOC(=O)CSc1nnc(NCC(=O)OC)c(=O)[nH]1 | 39.8µM*
COc1ccccc1CNC(=O)COC(=O)c1cc(-c2ccco2)nc2ccccc12 | 7.9%
Cc1c(O)ccc(C(=O)CN2C(=O)c3ccccc3C2=O)c1O | 9.2%
COc1ccccc1N1CCN(C(=O)CN(C2CCCCC2)S(C)(=O)=O)CC1 | -24.6%
O=C(Nc1ccccc1)/C(=C\c1ccco1)NC(=O)c1ccco1 | -4.9%
CN(CCc1ccccn1)C(=S)Nc1cccc(S(=O)(=O)N(C)C)c1 | 8.0%
COc1ccc(-n2c(=O)c3c4c(sc3n3cnnc23)CC(C)CC4)cc1 (stereo not drawn) | -5.7%

Fetched one by one from the list above, 5 records:
SMILES | VDR inh
COc1ccccc1CNC(=O)COC(=O)c1cc(-c2ccco2)nc2ccccc12 | 7.9%
CN(CCc1ccccn1)C(=S)Nc1cccc(S(=O)(=O)N(C)C)c1 | 8.0%
CC1=C(C(=O)Nc2ccccc2)C(c2ccc(C)o2)n2c(s/c(=C/c3ccccc3)c2=O)=N1 (stereo not drawn) | 4.0%
CCc1cc(=O)[nH]c(SCCC(F)=C(F)F)n1 | -12.8%
COc1ccc(-n2c(=O)c3c4c(sc3n3cnnc23)CC(C)CC4)cc1 (stereo not drawn) | -5.7%

Next part:
SMILES | VDR inh
CC(C)N1CC(C(=O)Nc2nc3ccccc3s2)CC1=O (stereo not drawn) | 12.6%
Cc1ccc(-c2nc3ccccc3c(=O)n2CCCn2ccnc2)cc1 | -4.0%
CCOc1ccc(-c2ccc(/C=C3/C(=N)N4C=CSC4=NC3=O)o2)c([N+](=O)[O-])c1 | -9.5%
COCCn1ccc2c(OCC(=O)Nc3cccc(C(F)(F)F)c3)cccc2c1=O | 5.2%
C/C(=N\NC(=S)NC1CCCCC1)c1ccc(OC(F)F)cc1OC(F)F | 6.7%
CCOC(=O)c1cccc(NC(=O)c2ccc3c(c2)nnn3CC)c1 | -3.1%
COc1ccc(NC(=O)c2ccc(-n3cccn3)nc2)c(OC)c1 | 19.6%
Cc1cccc(C)c1N(Cc1ccccc1F)S(C)(=O)=O | -4.3%
COCC(C)n1c(SCC(=O)Nc2cc(C)on2)nc2ccccc2c1=O (stereo not drawn) | -23.9%
CC(C)Oc1ccc(C(CC(=O)O)n2cnnn2)cc1 (stereo not drawn) | -1.7%
Cc1ccc(Cl)cc1N1CCN(C2CCCCC2NS(=O)(=O)c2ccccc2)CC1 (stereo not drawn) | -13.3%
COCCNC(=S)N(Cc1cc2cc(C)ccc2n2nnnc12)C1CCCC1 | -6.5%
